Screening results deposited in PubChem BioAssay by National Center for Advancing Translational Sciences (NCATS).
VACV Venus inh: qHTS for Stage-Specific Inhibitors of Vaccinia Orthopoxvirus: Venus Reporter Primary qHTS; Vaccinia virus Venus reporter expression, fluorescence; Potency, µM (titrated, usually from 36.5 µM), inactives show at the top dose activity change, negative = inhibition, usual class: inhibitors; actives 0.46% (n = 330,000); AID 720580, 2013; active means well fitted inhibition curve with a large enough effect; inconclusive means small, poorly fitted or top-dose-only effect; inactive means no such curve, though single readings can be large or run the other way; tested in A549 cells; also: nearly all actives have a fitted effect of over 30% in size; inactives centre near -10
Vaccinia mCherry: qHTS for Stage-Specific Inhibitors of Vaccinia Orthopoxvirus: mCherry Reporter Primary qHTS; Potency, µM (doses to about 36.5 µM), for the others: top-dose activity change, negative = inhibition, hits mostly inhibitors; AID 720579, 2013; Vaccinia virus mCherry reporter infection, fluorescence; about a quarter of the inactives have no number; actives 0.63% (n = 310,000); active = well fitted inhibition curve with a large enough effect; inconclusive = small, poorly fitted or top-dose-only effect; inactive = no such curve, though single readings can be large or run the other way; tested in A549 cells; also: nearly all actives have a fitted effect of over 35% in size; inactives centre near -10
* = called active by the depositor; i = inactive; ? = inconclusive; · = not tested or not shown; & = joins results of further samples; ! = a repeat was not active; [ ] = dose if it differs, or a comment. % is scaled to controls: 0 for no effect and ±100 for the full control effect; potency is read from the fitted curve at half-maximal effect. Rows are unselected, and some 0.82% of all compounds hit somewhere here.

SMILES	VACV Venus inh	Vaccinia mCherry
CCOC(=O)c1[nH]c2c(c1Cc1ccccc1)C(=O)CC(c1ccc(C(C)(C)C)cc1)C2 (stereo not given)	-9%	-12%
CCN(CC)S(=O)(=O)c1ccc(NC(=S)NC(=O)C2CCC2)cc1	-13%	-23%
Cc1cccc(NC(=O)CSc2nnc(CNC(=O)c3ccco3)n2C)c1C	-5%	-11%
COc1ccccc1N1CCN(S(=O)(=O)c2ccc3nc(-c4ccccc4)[nH]c3c2)CC1	-24%	-29%
COc1ccccc1CNC(=O)CSCc1nc(-c2ccc(OC)c(OC)c2)oc1C	-11%	-13%
CC(C)(C)[C@H]1CCC(=O)N(CCSc2ccc(Br)cc2)CC1	-14%	-17%
C[C@@H](C(=O)NC1CCCCC1)N1C(=O)N2CCc3c([nH]c4ccccc34)[C@@]2(C)C1=O	-13%	-11%
COc1ccc(-c2c(C)nn(-c3ccccc3)c2N)cc1	-14%	-5%
CCOC(=O)c1c(Nc2cccc(C(=O)OC)c2)nnc(-c2ccccc2)c1-c1ccccc1	-9%	-15%
Cc1n[nH]c(C)c1S(=O)(=O)N1CCCC(C(=O)N2CCc3ccccc32)C1 (stereo not given)	-16%	-20%
COc1ccc(-c2nc3ccccn3c2Nc2ccccc2C)cc1	-13%	-14%
Cc1ccc(-c2nc(S(=O)(=O)c3ccc(C)cc3)c(N3CCN(c4ccccc4)CC3)o2)cc1	-8%	i
CCCCCc1ccc(-c2cn(CC3CCCCC3)nn2)cc1	-1%&-7%	-15%
NS(=O)(=O)c1ccc(CCNC(=O)CSc2nc3ccsc3c(=O)n2C2CC2)cc1	-9%	18%
Cc1ccc(Cn2c(CO)cnc2SCC(=O)Nc2ccc(C)c(Cl)c2)cc1	-11%	-9%
O=C(Nc1ncccc1Cl)C1COc2ccccc2O1 (stereo not given)	-7%	i
Cc1c(OCC(=O)N[C@@H](Cc2ccccc2)C(=O)O)ccc2c3c(c(=O)oc12)CCC3	-5%	5%
CCC(C)n1c(OC)nc2c1c(=O)n(C)c(=O)n2C (stereo not given)	-7%	i
COc1ccc(NC(=O)CCCOc2ccc(C(C)=O)cc2)cc1S(=O)(=O)N1CCCCC1	-27%	?
CN(Cc1ccccc1)C(=O)COC(=O)c1cc([N+](=O)[O-])ccc1N1CCOCC1	-17%	-18%
COc1ccccc1NC(=O)c1cc(S(=O)(=O)N2CCCC2)cn1C	-1%	i
CCOc1ccc(CNC(=O)CN2C(=O)C(c3ccccc3)Oc3cccnc32)cc1 (stereo not given)	27%[7.34 µM]	16%[7.34 µM]
CCOc1ccc(N(CC(=O)NCCC2=CCCCC2)S(=O)(=O)c2ccccc2)cc1	-24%	?
COc1ccc(OC)c(-c2cc(C(=O)Nc3ccc(F)cc3F)no2)c1	-4%	-4%
O=C(Cc1ccccc1[N+](=O)[O-])Nc1ccc2c(c1)OCO2	-7%	i

The last 4 records of the section above come first, to join the parts:
SMILES	VACV Venus inh	Vaccinia mCherry
CCOc1ccc(CNC(=O)CN2C(=O)C(c3ccccc3)Oc3cccnc32)cc1 (stereo not given)	27%[7.34 µM]	16%[7.34 µM]
CCOc1ccc(N(CC(=O)NCCC2=CCCCC2)S(=O)(=O)c2ccccc2)cc1	-24%	?
COc1ccc(OC)c(-c2cc(C(=O)Nc3ccc(F)cc3F)no2)c1	-4%	-4%
O=C(Cc1ccccc1[N+](=O)[O-])Nc1ccc2c(c1)OCO2	-7%	i
CC(C)(C)n1nnnc1CN(Cc1ccco1)Cc1cc2cc3c(cc2[nH]c1=O)OCO3	-25%	·
CCN(Cc1nc(-c2ccc(C)cc2)no1)C(=O)c1ccco1	-3%	-10%
O=[N+]([O-])c1ccc(C[n+]2cc(-c3ccccc3)n3c2CCCCC3)cc1	-11%	-7%
O=C(COC(=O)c1ccccc1O)Nc1ncc(Cl)cc1Cl	-12%	-1%
OCCC1CN(Cc2cn[nH]c2C2CCCCC2)CCN1C1CCCC1 (stereo not given)	-14%	?
Cn1c(=O)c(C(=O)NNC(=O)c2ccccc2Br)c(O)c2ccccc21	-20%	?
O=C(O)c1cc(Cl)c(Cl)cc1C(=O)Nc1cccc2cccnc12	-7%	-18%
CCOC(=O)N1CCN(c2cc(=O)n(-c3ccc(C)cc3)c(=O)[nH]2)CC1	-8%	i
CCC(C)n1c(SCc2ccc([N+](=O)[O-])cc2)nc2ccsc2c1=O (stereo not given)	-10%	-23%
O=C(CN1C(=O)c2ccccc2C1=O)NCc1ccncc1	-6%	-9%
CC(C)(C)c1cc(C2COC(=O)COCCOCC(=O)OCCOCCO2)cc(C(C)(C)C)c1O (stereo not given)	-13%	i
Cc1ccc(C(=O)NC(C#N)=C(Cl)Cl)cc1	-27%	?
CCCCn1c(CNC(=O)C(C)(C)C)nc2ccccc21	-18%	i
COc1ccc(N2CCN(C(CNC(C)=O)c3ccco3)CC2)cc1 (stereo not given)	6%	-19%
COc1ccc2c(C)c(CCC(=O)NCc3ccc(OC)c(OC)c3)c(=O)oc2c1	-9%	-14%
NCCNS(=O)(=O)c1cccc2cnccc12	-11%	-13%
CCOC(=O)C1(Cc2ccccc2)CCCN(Cc2cccc(C(C)=O)c2)C1 (stereo not given)	-8%	-2%
Cn1c(N)nc2nc(CCc3ccccc3)c(=O)[nH]c2c1=O	-3%	-6%
COc1ccc(-c2nc3c(C)cc(Br)cn3c2CC2CCCCC2)cc1OC	4%	i
CN1CCC(N(C)C(=O)NC2CCCCC2)CC1	0%	-4%
COc1cccc(N2CCN(C(=O)C3CCN(C(=O)Nc4ccccc4)CC3)CC2)c1	-16%	i
C=CSc1sc(Cl)c(N(C)C)c1[N+](=O)[O-]	-13%	-24%
CCN(CC(=O)Nc1c(F)cccc1F)C(=O)c1ccc(C(=O)c2ccccc2)cc1	-15%	i
COc1ccc(N2CCN(C(=O)C34CCC(C)(C(=O)C3)C4(C)C)CC2)cc1 (stereo not given)	-11%	·
Cc1ccc(C)c2c1sc(=NC(=O)CN1C(=O)CCC1=O)n2C	-10%	-8%

Compound profiles (already shown). Values in the order: VACV Venus inh | Vaccinia mCherry
C=CSc1sc(Cl)c(N(C)C)c1[N+](=O)[O-] across the screens: -13% | -24%
Cn1c(=O)c(C(=O)NNC(=O)c2ccccc2Br)c(O)c2ccccc21 across the screens: -20% | ?
COc1ccccc1CNC(=O)CSCc1nc(-c2ccc(OC)c(OC)c2)oc1C across the screens: -11% | -13%
COc1ccc(-c2c(C)nn(-c3ccccc3)c2N)cc1 across the screens: -14% | -5%
Cc1ccc(C)c2c1sc(=NC(=O)CN1C(=O)CCC1=O)n2C across the screens: -10% | -8%

Additional structures follow:
SMILES	VACV Venus inh	Vaccinia mCherry
CN1CCN(C(=O)c2cc(Cl)ccc2Cl)CC1	-12%	·
COc1ccc(C2/C(=C(/O)c3ccc(C)cc3)C(=O)C(=O)N2C)c(OC)c1 (stereo not given)	-10%	i
O=C1C=CC(=C(c2ccc(O)cc2)c2ccc(O)cc2)C=C1	2%	-27%
CCCC(=O)N1CCN(c2nc(CC(C)C)c3c(c2C#N)CCC3)CC1	-15%	-24%
C=CCNC(=O)c1cc2c(C(F)(F)F)nn(C)c2s1	-26%	·
O=C1CCN(S(=O)(=O)c2ccccc2)CCN1CCOCc1ccc(Cl)cc1	-23%	?
O=c1[nH]cnc2ncc(-c3ccc(O)cc3)nc12	-2%	i
CCOC(=O)N1CCN(C(=O)c2ccc(C)c(S(=O)(=O)Nc3ccccc3)c2)CC1	-7%	·
CCc1ccc(NC(=O)Cn2c(=O)n(CCCC(=O)NCc3ccc4c(c3)OCO4)c(=O)c3ccccc32)cc1	-12%	-10%
CC(C)n1c(=N)c(C(=O)NCCc2ccccc2)cc2c(=O)n3ccccc3nc21	-12%	i
O=S(=O)(N/N=C\c1ccc2c(c1)OCO2)c1ccccc1	-13%	i
CCC(C)N1CC23C=CC(O2)C(C(=O)OCc2ccccc2)C3C1=O (stereo not given)	0%	-6%
CN(C)C1(c2nnnn2CCOC(=O)Nc2ccc(Cl)cc2)CCCCC1	-26%	·
O=C(NCc1ccncc1)/C(=N/O)c1ccccc1	-6%	·
C=CCN=C1SC(C)C(=O)N1S(=O)(=O)c1ccccc1 (stereo not given)	-2%	-1%
Cc1cccc(N2CCN(C(=O)c3sc4nc5n(c(=O)c4c3C)CCC5)CC2C)c1 (stereo not given)	-11%	-10%
COc1cccc(-c2cnc(C(O)c3ccc(CN4CCCC4)cc3)[nH]2)c1 (stereo not given)	1%	i
COc1ccc(CNC(=O)C2CC(c3ccccc3C(F)(F)F)=NO2)cc1 (stereo not given)	-11%	i
Cc1nc(CCNC(=O)CC2C(=O)NCCN2CC(C)C)nc2c1CCC2 (stereo not given)	-11%	-13%
NC(=NCCCCCCN=C(N)/N=C(\N)Nc1ccc(Cl)cc1)/N=C(\N)Nc1ccc(Cl)cc1	10µM*!	?
CC(=O)N/C(=C/c1ccccc1)C(=O)N1CCCCC1	5%	-10%
COc1ccc(/C=N/Nc2ccccc2C(=O)O)cc1Cn1cc([N+](=O)[O-])cn1	-15%	?
COc1ccc(S(=O)(=O)NCCC(=O)NC2CCCCC2C)cc1[N+](=O)[O-] (stereo not given)	-8%	-12%
O=C(/C=C/c1ccc2c(c1)OCO2)N1CCN(c2ccccc2F)CC1	-9%	-14%
CC(=O)N1c2ccc(S(=O)(=O)N(C)Cc3ccccc3)cc2CC1C (stereo not given)	-3%	i

Next part
SMILES	VACV Venus inh	Vaccinia mCherry
COc1ccc(C2CC(c3ccccc3)=NN2c2ccccc2)c(C(=O)O)c1OC (stereo not given)	-2%	i
CC1CCCCC1NC(=O)Cn1cnc2sccc2c1=O (stereo not given)	-5%	-5%
c1ccc(CSc2nnnn2-c2ccccc2)cc1	-4%	i
COc1ccc(N2C(=O)CC(NC3CC3)C2=O)cc1 (stereo not given)	-12%	·
Nc1c(C(=O)Nc2ccc(C(=O)O)cc2)sc2nc3c(cc12)CCCC3	3%	-14%
O=C(Nc1nccs1)[C@@H]1CCCN1S(=O)(=O)c1ccccc1F	-12%	i
CCc1cccc(C)c1NC(=O)CCCN1C(=O)CN(C)C1=O	-3%	i
COc1ccc(OC)c(/C=C/C(=O)NCCc2nc3ccccc3[nH]2)c1	-11%	i
CCc1ccc(CN2CCCC(C(=O)N3CCCCC3)C2)cc1 (stereo not given)	-12%	-7%
CCc1ccc2c(CN(CC)Cc3nc4ccccc4c(=O)[nH]3)cc(=O)oc2c1	-6%	-14%
Cc1cc([N+](=O)[O-])ccc1NC(c1nnc(-c2ccccc2)o1)c1ccccc1F (stereo not given)	0%	-2%
Cc1ccc(CN2CCN(CC(=O)N/N=C/c3c[nH]c4ccccc34)CC2)cc1	-6%	-2%
CC(=O)c1cccc(OC(=O)c2ccc3c(=O)n4c(nc3c2)CCC4)c1	-10%	i
Cc1sc(NC(=O)CSc2nc(O)cc(=O)[nH]2)nc1-c1ccccc1	-3%	-4%
O=C(Nc1ccccc1N1CCCCC1)c1ccc2nccnc2c1	-28%	-26%
Cc1ccc(S(=O)(=O)n2cc(CO)c3ccccc32)cc1	-3%	i
CCC(C)[C@H](NC(=O)OC(C)(C)C)C(=O)N/N=C/c1cccc2nccnc12 (stereo not given in full)	8%	5%
CC1O[C@@H](OC2CC(O)[C@@]3(CO)C4C(O)C[C@@]5(C)C(C6=CC(=O)OC6)CC[C@]5(O)C4CC[C@]3(O)C2)C(O)C(O)C1O (stereo not given in full)	0.28µM*	0.32µM*
COc1ccc(CNC(=O)C(C)OC(=O)c2cccs2)cc1 (stereo not given)	-5%	25%
CNC[C@@H]1Oc2cc(Br)ccc2S(=O)(=O)N([C@@H](C)CO)C[C@@H]1C	-19%	i
CCOc1ccc(NCc2cccn2-c2nnc(N3CCC(C(=O)NC(C)c4ccccc4)CC3)s2)cc1 (stereo not given)	?	?
Cc1cc(C)cc(C(=O)NC(CC(N)=O)c2ccc(N3CCN(c4ccccc4)CC3)c([N+](=O)[O-])c2)c1 (stereo not given)	-22%	-13%
COc1cc(NS(=O)(=O)c2ccc(NC(=S)Nc3ccccc3)cc2)nc(OC)n1	-6%	-7%
CCOC(=O)c1cnn(-c2ccc(NS(=O)(=O)c3ccc(Cl)cc3)cc2)c1C(F)(F)F	-23%	-25%
Cc1cc(NCCCN(C)C)n2nc(-c3cccs3)cc2n1	-2%	·

Compounds listed so far that have a cyano group (2):
SMILES	VACV Venus inh	Vaccinia mCherry
Cc1ccc(C(=O)NC(C#N)=C(Cl)Cl)cc1	-27%	?
CCCC(=O)N1CCN(c2nc(CC(C)C)c3c(c2C#N)CCC3)CC1	-15%	-24%

Later entries
SMILES	VACV Venus inh	Vaccinia mCherry
CC1(C)Cc2c(c(N3CCOCC3)nc3sc(-c4ccc(C(=O)O)o4)c(N)c23)CO1	8%	·
O=C(COc1ccc(F)cc1)Nc1nnc(C2CC2)s1	1%	i
CCN1CCC2(CC1)N=C(c1ccc(F)cc1)C(=S)N2C(=O)c1ccc(C(C)(C)C)cc1	-15%	-22%
CCOc1ccc(C)cc1-n1nc2ccccc2n1	-5%	-10%
Fc1ccc(C2=CC(c3ccc(Br)o3)n3ncnc3N2)cc1 (stereo not given)	11%	-16%
CC(CC(=O)OCC(=O)NC1CCS(=O)(=O)C1)c1ccccc1 (stereo not given)	-14%	i
Cc1ccc(S(=O)(=O)Cc2ccc(C(=O)N3CCC(C)CC3)cc2)cc1	-20%	-13%
CCOc1ccccc1NC(=O)Nc1cc(OC)ccc1OC	-1%	-7%
